miR-21 reporter = qHTS Assay for Modulators of miRNAs and/orActivators of miR-21; HeLa miR-21 FLuc reporter, luciferase, 48 h; Potency, µM (highest dose often 38.3 µM), without a hit: at the highest dose reporter change, positive = more light; 340,000 tested, under 10 active; AID 2288, 2010; active = well fitted rising curve with a large enough effect; inconclusive = small, poorly fitted or top-dose-only effect; inactive = no such curve, though single readings can be large or run the other way;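 also: % of control where 0% means no effect; miR-21 action dims this reporter so a rising signal means less miR-21 action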
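Luminescence from a firefly luciferase reporter carrying a miR-21 binding site downstream, stably expressed under a CMV promoter in HeLa cells that make miR-21 endogenously, reports miRNA modulation after 48 h compound exposure up to approximately 40uM final.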
Rango complex inh = qHTS Assay for Inhibitors of Rango (Ran-regulated importin-beta cargo) - Importin beta complex formation. Importin subunit beta-1 (Homo sapiens), Q14974. Rango CFP/YFP FRET sensor + importin beta, 45 min. Potency, µM (top dose mostly 92.2 µM), without a hit: at the top dose inhibition of complex formation. actives 0.031% (n = 340,000); active = rising FRET ratio curve, often small or poorly fitted; inconclusive = mostly compound fluorescence or quenching in the first reads; inactive = flat curves in all reads;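 also: potency is read from the fitted curve at half-maximal effect; 0% = DMSO wells and 100% = buffer wells lacking importin beta; nearly all actives have a fitted effect of over 15% in size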
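FRET biosensor Rango (snurportin 1 IBB between N-terminal EYFP and C-terminal Cerulean), 50 nM in PBS/1 mM DTT/0.02% Tween-20/0.1% BSA, preincubated 5 min RT with compound; 0.125 microM importin beta added, 45 min RT, CFP/YFP FRET ratio read.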
GLA inh pH 4.5 = qHTS Assay for Inhibitors of Human alpha-Galactosidase at pH 4.5 | purified enzyme, 4-MU-alpha-Gal fluorescence, pH 4.5 | activity change, negative = inhibition, % at 105 µM | AID 1467, 2008 | 230,000 tested, under 10 active | Alpha-galactosidase A (Homo sapiens), P06280; inconclusive = small, poorly fitted or top-dose-only inhibition, or a rising curve; inactive = flat fitted curve, though single readings scatter; no compound was filed as active;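 also: 0% = full activity with enzyme and -100% = basal without enzyme; dose as in the result columns while the protocol names 77 µM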
Target sequence (P06280 whole entry, looked up): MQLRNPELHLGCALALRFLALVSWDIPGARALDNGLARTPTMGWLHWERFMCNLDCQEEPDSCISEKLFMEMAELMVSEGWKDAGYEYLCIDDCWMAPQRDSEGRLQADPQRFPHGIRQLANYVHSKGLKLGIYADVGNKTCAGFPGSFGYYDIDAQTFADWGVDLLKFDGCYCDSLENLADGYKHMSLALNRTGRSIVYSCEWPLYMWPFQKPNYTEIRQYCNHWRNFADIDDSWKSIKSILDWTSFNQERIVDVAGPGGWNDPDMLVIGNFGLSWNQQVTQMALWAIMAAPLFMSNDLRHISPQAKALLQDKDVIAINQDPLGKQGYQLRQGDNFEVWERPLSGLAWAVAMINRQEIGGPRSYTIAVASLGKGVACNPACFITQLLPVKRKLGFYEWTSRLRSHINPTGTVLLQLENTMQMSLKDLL
Rango release inh = qHTS Assay for Inhibitors of RanGTP induced Rango (Ran-regulated importin-beta cargo) - Importin beta complex dissociation; Biochemical FRET Rango-importin beta, RanGTP-induced dissociation; Potency, µM (doses to about 46.1 µM), for the others: top-dose activity change, negative = inhibition; actives 0.071% (n = 340,000); AID 540253, 2011; active means falling FRET ratio curve, often poorly fitted, with flat reads before Ran was added; inconclusive means other falling curves, or compound fluorescence or quenching; inactive means flat or rising ratio curve;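 also: potency is read from the fitted curve at half-maximal effect; % of control where 0% means no effect; nearly all actives have a fitted effect of over 45% in size; -100% = wells without RanGTP and RCC1; the record marks most hits as doubtful in a second field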
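Quantitative HTS using a FRET biosensor: 0.1 uM Rango, 0.25 uM importin beta, 0.6 uM Ran, 2 mM GTP, 0.2 uM RCC1 final, PBS with DTT, Tween-20 and BSA. Post-read taken 45 min after Ran addition.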
Numbers without * were called inactive; ? = inconclusive; / = not tested or not shown; & = joins results of further samples.

SMILES	miR-21 reporter	Rango complex inh	GLA inh pH 4.5	Rango release inh
CCn1c(SCC(=O)NC2CCCCC2)nnc1C(C)NC(=O)c1ccccc1F (stereo not drawn)	1%	3.9%	/	2%
Cc1cccc(Oc2sc(C(=O)c3ccccc3)c(N)c2C#N)c1C	8%	4.2%	-9	0%
CC(C)(C)N(Cc1ccccc1)C(=O)COC(=O)CNS(=O)(=O)c1ccc2ccccc2c1	/	-0.2%	/	-2%
CC(C)[C@H](N)c1nnc(SC/C=C/c2ccccc2)o1	-11%	-0.7%	5	12%
O=C(c1ccc(Cn2cc(Br)cn2)o1)n1cccn1	-6%	-0.4%	-1	-7%
S=C(NC1CC1)N1CCCc2ccccc21	-1%	-0.8%	/	-19%
CCOC(=O)c1sc(NCCNc2nc(C)c(C(=O)OCC)s2)nc1C	-2%	4.8%	9	3%
CCOC(=O)N1CCN(S(=O)(=O)c2ccc(C(=O)Nc3nnc(CC)o3)cc2)CC1	-2%	4.5%	-9	32%
CC(C)[C@H](NC(=O)c1ccco1)C(=O)Nc1ccc(OC(F)F)cc1	-3%	-0.7%	/	8%
CCOc1ccccc1C(=O)n1nc2nc(C)cc(C)c2c1N	1%	?	2	7%
C=C1CCN([C@H](C(=O)NCc2ccco2)C(C)C)S(=O)(=O)c2ccccc21	0%	-1.5%	7	-3%
COc1ccc(NC2CC(=O)N(c3ccc(C(=O)O)cc3)C2=O)cc1 (stereo not drawn)	-3%	0.8%	?	?
C=CCOc1ccc(/C=C/C(=O)N2CCCN(S(=O)(=O)c3c(C)noc3C)CC2)cc1	/	-0.5%	/	-17%
Cc1ccc2cc(C#N)c(N3CCCC3)nc2c1C	-7%	?	-1	?
O=C(Nc1ccc(N2CCCCCC2)cc1)c1ccccc1Cl	-30%	-1.1%	11	0%
O=C(Nc1cccc(-c2ccc(F)cc2)c1)C1CCCN(Cc2cccnc2)C1 (stereo not drawn)	12%	-1.8%	/	2%
CCOc1ccc(-c2csc3ncn(-c4ccc(OC)cc4)c(=O)c23)cc1	0%	5.1%	4	-7%
C=CCn1c(CSCc2ccc(F)cc2)n[nH]c1=S	3%	2.5%	/	-4%
COc1ccc(OC)c(NC(=O)CN(c2ccc(C(C)C)cc2)S(=O)(=O)c2c(C)noc2C)c1	9%	?	-9	4%
O=c1c2ccccc2nc(-c2ccccc2)n1CCCn1ccnc1	-13%	1.9%	6	6%
Cc1ccc(NC(=O)C2CC2c2ccccc2)cc1 (stereo not drawn)	-46%	5.8%	/	-5%
O=C(CN(Cc1ccccc1Cl)C(=O)c1csnn1)NCc1ccccc1	-3%	0.1%	/	12%
O=C(O)Cc1ccc(O)c(O)c1	0%	-0.7%	-2&2	-1%
CC(C)(C)NC(=O)CN(C(=O)CS(=O)CC(=O)Nc1ccc(F)cc1)c1ccccc1 (stereo not drawn)	-3%	-5.4%	-23	-13%
Cn1nc(C(F)(F)F)c(C#N)c1N1CCN(c2ccccc2F)CC1	-5%	-0.7%	6	8%
Cc1ccc(C)c(N(CC(=O)Nc2ccc(-c3nc4ccc(C)cc4s3)cc2)S(C)(=O)=O)c1	-22%	?	7	-10%
CN1CCN(c2ccc(S(=O)(=O)N3CCCCC3)cc2NC(=O)CCc2ccccc2)CC1	/	-1.9%	/	-2%
COC(=O)[C@]1(C)N[C@H](c2ccc(-c3cccc(Cl)c3)c(OC)c2)[C@@H]2C(=O)N(C)C(=O)[C@@H]21	/	0.1%	/	24%
COc1cccc(NC(=O)c2ccc3nsnc3c2)c1	-45%	0.4%	/	0%
CCC(C)COC(=O)C(C#N)c1nc2ccccc2nc1N1CCCCC1 (stereo not drawn)	-4%	?	0	?

Record cards, from the list above. Order of values: miR-21 reporter	Rango complex inh	GLA inh pH 4.5	Rango release inh
COC(=O)[C@]1(C)N[C@H](c2ccc(-c3cccc(Cl)c3)c(OC)c2)[C@@H]2C(=O)N(C)C(=O)[C@@H]21 is entered as /	0.1%	/	24%
CN1CCN(c2ccc(S(=O)(=O)N3CCCCC3)cc2NC(=O)CCc2ccccc2)CC1 is entered as /	-1.9%	/	-2%
CCOC(=O)c1sc(NCCNc2nc(C)c(C(=O)OCC)s2)nc1C is entered as -2%	4.8%	9	3%
COc1ccc(NC2CC(=O)N(c3ccc(C(=O)O)cc3)C2=O)cc1 (stereo not drawn) is entered as -3%	0.8%	?	?
CC(C)(C)NC(=O)CN(C(=O)CS(=O)CC(=O)Nc1ccc(F)cc1)c1ccccc1 (stereo not drawn) is entered as -3%	-5.4%	-23	-13%

Following part:
SMILES	miR-21 reporter	Rango complex inh	GLA inh pH 4.5	Rango release inh
Cc1cc(-n2c(C)cc(C(=O)COc3ccc(F)c(F)c3)c2C)no1	/	-1.2%	/	0%
CC(Sc1nnc2ccccn12)C(=O)N1CCc2ccccc2C1 (stereo not drawn)	-32%	-3.1%	7	5%
CCOC(=O)c1cc(-c2ccc(OC)cc2)n(CCC(=O)NC2CCN(Cc3ccccc3)CC2)c1C	-4%	1.5%	-23	11%
CCCCOC1(c2ccccc2)NC(=S)NN=C1c1ccccc1 (stereo not drawn)	-4%	/	0	/
Cc1c(C)n(CC(O)CN(CCO)CCO)c2ccccc12 (stereo not drawn)	-1%	2.8%	1	5%
OC(CNCCc1ccccc1)c1ccccc1 (stereo not drawn)	-12%	-16%	4	-19%
COc1ccccc1NC(=O)CC(=O)c1ccccc1	-6%	0.4%	/	-1%
CCN(CC)S(=O)(=O)c1ccc(Oc2ccccc2OC)cc1	-16%	-0.1%	3	-3%
O=C(Cc1ccc2c(c1)OCCO2)N1CCN(c2ccccc2)CC1	-22%	0.4%	-6	-5%
CC(C)(C)C(=O)N1CCCC1C(=O)O (stereo not drawn)	-4%	7.0%	/	-4%
COc1ccc(C(=O)C2CCN(C(=S)NCC3CCCO3)CC2)cc1 (stereo not drawn)	-3%	0.7%	-5	12%
COc1cccc(N2CCN(C(=O)Cn3c(=O)oc4ccccc43)CC2)c1	-1%	4.4%	/	-11%
COc1ccc2nc(NC(=O)c3ccc4ncsc4c3)sc2c1	-52%	?	-16	-26%
Cc1ccc(CNC(=O)CS(=O)CC(=O)O)cc1 (stereo not drawn)	-2%	7.7%	3	-12%
Cc1ccc(N2N=C(c3ccc(Br)cc3)CCC2=O)cc1	-19%	-2.5%	1	-4%
CCc1ccc(C(=O)NNC(=O)c2ccc(OCC(=O)N3CCOCC3)c(OC)c2)cc1	/	8.6%	/	9%
CC1(C)CC(Nc2ccc(C(F)(F)F)cc2[N+](=O)[O-])CC(C)(C)N1	-18%	3.0%	-3	-6%
O=C(Cc1ccc(-n2cccc2)cc1)NCc1cccs1	18%	-3.0%	2	0%
NS(=O)(=O)c1cccc(NC(=O)COC(=O)CCC(=O)c2cccs2)c1	/	-4.5%	/	1%
O=C1[C@@H]2[C@@H]3C[C@@H]([C@H]4ON=C(c5ccc(Cl)cc5Cl)[C@@H]34)[C@@H]2C(=O)N1C1CCCCC1	0%	-3.3%	-1	17%
COc1ccc(CCNC(=O)CCCn2c(=O)[nH]c3cc(OC)c(OC)cc3c2=O)cc1OC	-11%	-0.3%	-6	14%
Cc1ccc(C(=O)NNC(=O)c2ccncc2)cc1S(=O)(=O)N1CCCCC1	/	-3.9%	/	-3%
Cc1ccc(S(=O)(=O)N(CC(=O)N2CCC(C)CC2)c2cccc(C)c2)cc1	4%	-0.5%	-5	10%
COc1ccc(Cc2noc(-c3ccccc3)n2)cc1OC	-6%	-1.1%	3	0%
Cc1csc(SCC(=O)NC(=O)C2CCCCC2)n1	2%	-3.3%	1	-15%
COC(=O)[C@]1(Cc2ccccc2)N[C@H](CN(C)S(=O)(=O)c2ccc(C(C)(C)C)cc2)[C@@H]2C(=O)N(Cc3ccccc3)C(=O)[C@@H]21	/	-3.3%	/	-13%
CCn1cc(C(=O)N2CCCC(N3CCN(c4cccc(C(F)(F)F)c4)CC3)C2)cn1 (stereo not drawn)	12%	2.1%	/	8%
O=C(O)c1ccc(Oc2c(C(F)(F)F)oc3cc(O)ccc3c2=O)cc1	-21%	1.0%	3	-11%
C#CCCCc1nc2ccccc2c(=O)n1N	-4%	?	4	-4%
CC12CC3(C)CC(C)(C1)CC(C(=O)NCCc1ccc(S(N)(=O)=O)cc1)(C2)C3	4%	-1.5%	/	-7%
O=C1CCc2cc(S(=O)(=O)N3CCC(C(=O)NCc4ccccc4Cl)CC3)ccc2N1	-1%	-1.5%	9	32%
CCN(CC)c1ccc(/C=N/NC(=S)NC)c(O)c1	-34%	?	-10	-13%
COC(=O)c1ccc(NC(=O)Cn2nc(C)cc2C)cc1	-1%	-5.1%	-16	?
Cc1ccc(S(=O)(=O)CCc2nnc(NC(=O)c3ccco3)s2)cc1	-1%	2.9%	-7	-15%
COc1ccc(N(Cc2cc3cccc(C)c3[nH]c2=O)S(=O)(=O)c2ccc(OC)cc2)cc1	-1%	1.9%	/	29%
CCc1ccc(S(=O)(=O)NCc2csc(-c3ccccc3)n2)s1	-10%	-1.8%	-20	-7%
O=C(NC1CCCCCCC1)c1ccc2c(c1)N(Cc1ccc(F)cc1)C(=O)CS2=O (stereo not drawn)	-9%	?	6	-14%
COc1ccc(CCC(=O)Nc2ccc(C)c([N+](=O)[O-])c2)cc1	-9%	0.4%	6	-1%
Cc1ccc(O)c(C(=O)CC(=O)c2ccccc2Cl)c1	1%	-1.4%	-2	28%
COc1ccccc1C(=O)NCCC(=O)NN1C(=O)NC2(CCCCC2)C1=O	/	5.1%	/	6%
CC(=O)c1n[nH]nc1NC(=O)c1ccccc1	17%	4.4%	-4	-12%
Cc1onc(-c2ccccc2)c1CNS(=O)(=O)c1ccccc1	1%	-3.2%	-1	0%
O=C(CSc1nc2[nH]ncc2c(=O)[nH]1)c1ccc(Cl)cc1	1%	/	0	/
CN(c1ccc(C(=O)Nc2ccccc2C(=O)N2CCOCC2)cc1)S(C)(=O)=O	0%	-2.3%	-6	1%
CCN(CC)c1ccc(/C=N/O)cc1	-36%	1.5%	-3	3%
CCCN1CCN(C(=O)c2cc3c(s2)-c2ccccc2S(=O)(=O)C3)CC1	-33%	/	1	/
CCOC(=O)c1ccccc1NC(=O)c1cccc([N+](=O)[O-])c1	1%	-0.1%	-5	-11%
O=C(C=Cc1ccccc1)c1cccs1	/	-3.9%	/	2%
COCCCn1c(=S)[nH]c2sc3c(c2c1=O)CCCC3	-14%	-2.7%	/	?
Cc1ccc(S(=O)(=O)NNC(=O)C2CCCCC2)cc1	5%	2.0%	/	8%
COc1cccc(C(O)c2cnc(C(C)C)n2C)c1OC (stereo not drawn)	-8%	0.7%	5	2%
COc1cc(/C=C/C(=O)O)cc(S(=O)(=O)Nc2ccc3cn[nH]c3c2)c1OC	/	-1.6%	/	2%
COc1ccc(CCNC(=O)C(=O)NCC2OCCN2S(=O)(=O)c2ccc3c(c2)OCCO3)cc1OC (stereo not drawn)	-8%	-2.8%	/	0%
CCOC(=O)c1ccc(CNC(=O)C2CCC(=O)N(CCc3ccccc3)C2)o1 (stereo not drawn)	-2%	-1.2%	/	0%
O=C(NC1=C(NC2CCS(=O)(=O)C2)C(=O)c2ccccc2C1=O)c1ccccc1 (stereo not drawn)	?	-0.4%	6	-2%
Cn1c(SCC(=O)NCC2CCCO2)ncc(C(=O)Nc2ccccc2)c1=O (stereo not drawn)	/	-0.1%	/	9%
CCOC(=O)c1c(S(=O)(=O)Nc2ccc(F)cc2C)c(C)n(C)c1C	-4%	-3.2%	/	?
COc1ccc(C(=O)COC(=O)c2nc3nccc(C)n3n2)cc1F	/	?	/	-1%
Clc1ccc(Cn2nc(-c3ccccc3)nc2-c2ccccc2)cc1	-17%	1.1%	-9	-4%
O=C(Oc1cccc(C(=S)N2CCOCC2)c1)c1ccc([N+](=O)[O-])cc1[N+](=O)[O-]	-1%	1.3%	/	-4%
Cc1ccc(-c2nc(C)sc2CC(=O)O)cc1	3%	-2.1%	2	14%
COc1ccc(-c2csc(C3=C(O)CN(CCCN4CCCC4=O)C3=N)n2)cc1OC	-61%	3.1%	6	15%

Assay outcomes from PubChem.

These rows are one share of the data. The share of hits here may be higher or lower than overall.
